Source: PubChem
NS1 function inh – influenza NS1 inhibition | S. cerevisiae slowed by influenza A NS1, growth recovery by OD600 | Potency, µM (highest dose often 46.1 µM), without a hit: at the top dose activity, positive = more growth | 0.4% of 270,000 active; also: actives are rising curves; nearly all actives have a fitted effect of over 50% in size
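A cell-based growth assay was used: compounds that relieve NS1-induced slow growth of budding yeast raise OD600. Assay medium was yeast nitrogen base with ammonium sulphate and -URA supplement, pH 6.0, with 2% galactose.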
MARV entry inh – blocks Marburg virus binding to or entry into cells. 1.8% of 300,000 active. Marburg virus pseudotyped entry inhibition, cell reporter; control for the full effect not named in the record; about a third of the inactives were read at about 46 µM. Potency, µM (doses to about 37.8 µM), for inactives: top-dose activity change, negative = inhibition, actives largely listed as inhibitors; active = well fitted inhibition curve with a large enough effect; inconclusive = small, poorly fitted or top-dose-only effect, or effect the other way; inactive = flat fitted curve, though single readings scatter; tested in HEK293 cells; about a fifth of its hits are not listed in these tables; also: % is scaled to controls: 0 for no effect and ±100 for the full control effect; luciferase read-out
Cruzain noTriton – inhibitors of Trypanosoma cruzi cruzain without detergent; P25779; purified cruzain, Z-FR-AMC fluorescence, no detergent; AID 1476; Potency, µM, without a hit: max response, negative = inhibition, most hits filed as inhibitors; 2.3% of 200,000 active; active = well fitted curve in the direction sought with a large enough effect; inconclusive = small, poorly fitted or top-dose-only effect, or another doubt; inactive = no such curve, though single readings can be large; an effect the other way counts as inactive or inconclusive;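 also: plate controls were enzyme without inhibitor for no effect and buffer without enzyme for full effect; nearly all actives have a fitted effect of over 40% in size; top concentration of the series not given in the record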
Target sequence (P25779 123-467 limits assumed): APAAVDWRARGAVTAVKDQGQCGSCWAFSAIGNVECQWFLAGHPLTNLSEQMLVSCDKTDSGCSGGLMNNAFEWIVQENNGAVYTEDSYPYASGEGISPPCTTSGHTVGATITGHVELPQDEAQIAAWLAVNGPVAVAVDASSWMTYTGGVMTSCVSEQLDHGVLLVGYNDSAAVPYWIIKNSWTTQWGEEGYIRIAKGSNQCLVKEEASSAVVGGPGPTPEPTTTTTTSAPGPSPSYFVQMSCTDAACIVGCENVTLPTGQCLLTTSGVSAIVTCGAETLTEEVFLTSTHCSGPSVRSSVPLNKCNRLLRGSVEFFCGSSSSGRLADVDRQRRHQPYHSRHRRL
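Detergent-free condition (0.00005% Triton X-100) in acetate buffer pH 5.5 with DTT. 1.5 nM enzyme and compound were pre-mixed 15 min, then 2 uM Z-FR-AMC substrate added; reaction progress from fluorescence change between first and third reads (60 s).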
Lassa entry inh – Lassa virus entry inhibition; Lassa virus pseudotype entry inhibition, cell reporter; control for the full effect not named in the record; Potency, µM (top dose mostly 37.9 µM), without a hit: at the top dose activity change, negative = inhibition, usual class: inhibitors; 1.2% of 300,000 active; AID 540256; active means well fitted inhibition curve with a large enough effect; inconclusive means small, poorly fitted or top-dose-only effect, or effect the other way; inactive means flat fitted curve, though single readings scatter; tested in HEK293 cells; also: % is scaled to controls: 0 for no effect and ±100 for the full control effect; nearly all actives have a fitted effect of over 50% in size; luciferase read-out
2A StopGo – FMDV 2A StopGo reporter, luciferase signal; 1.2% of 410,000 active; Potency, µM (top dose mostly 57.9 µM), for the others: top-dose signal change, negative = less light; human cells with a luciferase reporter of 2A StopGo recoding; control for the full effect not named in the record; active = well fitted falling curve with a large enough effect; inconclusive = small, poorly fitted or top-dose-only effect; inactive = no such curve, though single readings can be large or run the other way; tested in HEK293T cells; also: % is scaled to controls: 0 for no effect and ±100 for the full control effect; nearly all actives have a fitted effect of over 45% in size; luciferase light after 4 h
Cruzain inh Det – cruzain (T. cruzi) inhibition with detergent | P25779 | 0.43% of 200,000 active | Potency, µM, for the others: max response, negative = inhibition, most hits filed as inhibitors | purified cruzain, Z-FR-AMC fluorescence, 0.01% Triton; active = well fitted curve in the direction sought with a large enough effect; inconclusive = small, poorly fitted or top-dose-only effect, or another doubt; inactive = no such curve, though single readings can be large; an effect the other way counts as inactive or inconclusive;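 also: plate controls were neutral wells for no effect and buffer without enzyme for full effect; nearly all actives have a fitted effect of over 40% in size; top concentration of the series not given in the record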
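Sodium acetate buffer (100 mM, pH 5.5) containing 5 mM DTT and 0.01% Triton X-100 hosted 1.5 nM cruzain and test compound for 15 min at room temperature. Cleavage of 2 uM Z-FR-AMC was then tracked by fluorescence.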
RE007 growth inh – less growth of the S. pombe RE007 Vpr strain; S. pombe RE007 Vpr strain, BacTiter-Glo ATP luminescence, 24 h; control for the full effect not named in the record; Potency, µM (titrated, usually from 92.2 µM), inactives show at the top dose activity change, negative = less growth; 0.21% of 360,000 active; active = well fitted falling curve with a large enough effect; inconclusive = small, poorly fitted or top-dose-only effect; inactive = no such curve, though single readings can be large or run the other way;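 also: % is scaled to controls: 0 for no effect and ±100 for the full control effect; nearly all actives have a fitted effect of over 50% in size; the assay follows cell death caused by Vpr and the record does not say whether a fall means rescue or toxicity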
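Fission yeast RE007 carrying one integrated HIV-1 vpr copy, seeded at OD 0.01 in PMG+AL medium with 23 nL pinned compound. Grown 24 h at 30 degrees; viability read by BacTiter-Glo luminescence after 5 min.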
SARS PLP yeast – blocks SARS-CoV papain-like protease in a yeast assay | AID 485353 | 0.19% of 330,000 active | Potency, µM (top dose mostly 32.9 µM), without a hit: top-dose activity, positive = growth rescue | S. cerevisiae expressing SARS-CoV PLpro, growth rescue; control for the full effect not named in the record; also: 0% is about no effect; nearly all actives have a fitted effect of over 55% in size; growth read by luminescence after 48 h
* hit, by the source's call; ? = inconclusive; · = no result given; [ ] = remark or other dose. Unless noted, calls follow the shape of the dose curve; as a rule, active means well fitted rising curve with a large enough effect; inconclusive means small, poorly fitted or top-dose-only effect; inactive means no such curve, though single readings can be large or run the other way. Potency is read from the fitted curve at half-maximal effect.

smiles	Cruzain noTriton	Cruzain inh Det	Lassa entry inh	NS1 function inh	MARV entry inh	2A StopGo	RE007 growth inh	SARS PLP yeast
COc1ccc(CNC(=O)c2[nH]c(C)c(C(C)=O)c2C)cc1	·	·	-1%[46.1 µM]	16%	-3%[46.1 µM]	7%	-13%	-2%
Cc1ccc2nc(-c3ccc(NC(=O)COc4ccc(Br)cc4Br)cc3)sc2c1	9%	6.8%	?	·	·	0%	·	·
CCOC(=O)c1ccc(NC(=O)c2nc(S(=O)(=O)Cc3ccccc3)ncc2Cl)cc1	8%	-5.8%	?	-2%	11µM*	35µM*	-2%	1%
O=C(COC(=O)/C=C/c1ccc([N+](=O)[O-])cc1)NCc1ccccc1	?	-1.9%	7%	14%	0%	-11%	9%	15%
Cc1ccc(C)c(-c2nnc(NC(=O)c3ccc([N+](=O)[O-])o3)o2)c1	·	·	?	·	-16%	-13%	-16%	-27%
O=C(c1ccc(F)cc1)N1CCCCC(Sc2nnnn2-c2ccccc2)C1=O (stereo not drawn)	6%	-1.6%	?	-1%	2%	-22%	-2%	4%
NC(N)=NS(=O)(=O)c1ccc(NC(=S)NC(=O)/C=C/c2cccs2)cc1	·	·	3%	·	-22%[46.1 µM]	-8%	-9%	1%
CC(C)(C)C(=O)Nc1cccc(C(=O)OCc2cc(=O)n3nc(C4CC4)sc3n2)c1	-9%	-0.9%	-29%[46.1 µM]	·	·	?	·	·
C=CCOc1ccc(CNc2ccc(NC(=O)CC(C)C)cc2)cc1OC	-12%	-4.3%	-2%	14%	-5%	-15%	16%	2%
CC1=NN(C(N)=S)C(=O)C1N=Nc1ccccc1C (stereo not drawn)	25µM*	?	4%	-60%	?	15%	-22%	-13%
COc1ccc(OC)c(CCNC(=O)Cn2ccc3cc(S(=O)(=O)N4CCCC4)ccc32)c1	·	·	·	-1%	·	-23%	-7%	-3%
O=C(Nc1nnc(-c2ccco2)o1)C1CC1	·	·	16%	·	21%	6%	3%	1%
COCCCNc1ncnc2nc[nH]c12	5%	-2.5%	·	11%	·	-7%	6%	8%
O=C(c1ccc(F)cc1F)N1CCCC(c2nc(-c3cccs3)no2)C1 (stereo not drawn)	·	·	?	-11%	-22%[46.1 µM]	-5%	5%	0%
CN(N)N=Nc1nc2c([nH]1)c(=O)n(C)c(=O)n2C	·	·	23%	0%	3%	-7%	-28%	-1%
Cc1ccc(Oc2ncccc2C(=O)NC2CCSC2=O)cc1 (stereo not drawn)	·	·	-16%	17%	-4%[14.2 µM]	-5%	3%	1%
Cn1c(=NC(=O)C2CCCCC2)sc2cc([N+](=O)[O-])ccc21	·	·	?	·	?	29%	10%	-1%
Cc1cc(=O)oc2cc(OCC(=O)N3CCN(Cc4ccc5c(c4)OCO5)CC3)ccc12	·	·	·	-21%	·	-23%	-1%	10%
CCN(CC)S(=O)(=O)c1ccc(OC)c(NC(=S)Nc2cc(C)ccc2C)c1	16%	-3.6%	-1%	15%	4%	·	·	-10%
CCOC(=O)c1cc(NC(=O)N(C)C2CCCCC2)c(C)nc1C	·	·	6%[46.1 µM]	-6%	2%[46.1 µM]	48%[activator]	8%	0%
O=C1NC(=O)C(CCc2ccncc2)(C2CCCCC2)C(=O)N1	6%	-2.8%	8%	-3%	5%	-17%	-15%	3%
CCOC(=O)Cn1c(N)c(C(=O)OC)sc1=S	-5%	-2.6%	-5%	7%	1%	-17%	-8%	1%
Cc1ccc2nc(-c3ccc(Br)o3)oc(=O)c2c1	-5%	3.9%	10%	-58%	10%	8%	-16%	2%
Cc1ccc(C(=O)NNC(=O)CCC(=O)NCc2ccccc2)cc1Br	·	·	·	12%	·	19%	15%	-2%

4 compounds drawn at random from those above:
smiles	Cruzain noTriton	Cruzain inh Det	Lassa entry inh	NS1 function inh	MARV entry inh	2A StopGo	RE007 growth inh	SARS PLP yeast
CCN(CC)S(=O)(=O)c1ccc(OC)c(NC(=S)Nc2cc(C)ccc2C)c1	16%	-3.6%	-1%	15%	4%	·	·	-10%
Cc1cc(=O)oc2cc(OCC(=O)N3CCN(Cc4ccc5c(c4)OCO5)CC3)ccc12	·	·	·	-21%	·	-23%	-1%	10%
Cc1ccc(C(=O)NNC(=O)CCC(=O)NCc2ccccc2)cc1Br	·	·	·	12%	·	19%	15%	-2%
CCOC(=O)c1cc(NC(=O)N(C)C2CCCCC2)c(C)nc1C	·	·	6%[46.1 µM]	-6%	2%[46.1 µM]	48%[activator]	8%	0%

Other structures:
smiles	Cruzain noTriton	Cruzain inh Det	Lassa entry inh	NS1 function inh	MARV entry inh	2A StopGo	RE007 growth inh	SARS PLP yeast
COC(=O)c1cc(NC(=O)c2ccccc2)c(=O)oc1C	·	·	10%	-7%	1%[46.1 µM]	16%	-23%	-8%
Nc1c(Cl)ncnc1Nc1ccc(C(=O)O)cc1	·	·	0%	·	3%	-19%	-7%	·
Cn1c(=O)[nH]c(=O)c2c1nc(CN1CCOCC1)n2CCCO	9%	-2.4%	11%	1%	12%	-11%	-7%	4%
NC1=NC(=O)C(Cc2ccccc2)S1 (stereo not drawn)	·	·	17%	6%	3%[46.1 µM]	-1%	1%	1%
CC(=O)Nc1ccc(NC(=O)C2C3CCC(C3)C2C(=O)O)cc1 (stereo not drawn)	·	·	·	-1%	·	10%	-6%	0%
CC(C)Nc1ncnc2c1cnn2Cc1ccccc1Cl	·	·	·	4%	·	?	3%	-1%
CSc1ccc(S(=O)(=O)NCCSc2ccccn2)cc1	?	9.3%	12%	10%	-2%	·	-3%	8%
O=C(CN(c1ccc(Cl)cc1)S(=O)(=O)c1ccc(Cl)c([N+](=O)[O-])c1)NCCc1ccc(F)cc1	?	-5.8%	-1%	10%	2%	-20%	4%	4%
Cn1c(SCc2nc3ccccc3s2)nnc1-c1ccc2c(c1)OCO2	?	0.3%	1%	-9%	19%	59%[activator]	12%	-5%
COc1ccc(C2CCCN2C(=S)Nc2cccc(C)c2C)cc1OC (stereo not drawn)	·	·	?	·	-20%[46.1 µM]	-26%	-10%	-3%
COC(=O)c1cn(Cc2ccccc2C)nn1	-10%	-1.7%	14%	-8%	0%	-8%	22%	-3%
Clc1ccc(-c2cn3cc(Cc4ccccc4)sc3n2)cc1	-9%	-1.7%	?	·	?	-35%	·	·
CC(=O)N(C)c1ccc(NC(=O)C(Sc2ccccc2)c2ccccc2)cc1 (stereo not drawn)	·	·	-12%[46.1 µM]	·	-25%[46.1 µM]	30%[activator]	-5%	0%
COc1ccccc1N(CC(=O)N1CCN(c2ccccc2)CC1)S(=O)(=O)c1ccc(C)cc1	·	·	-20%	?	-21%	-8%	-11%	-2%
Cc1ccc(-n2cc(C(=O)c3ccccc3O)cn2)cc1	-27%	-0.9%	3.5µM*	-4%	?	-56%	-24%	3%
CC(=O)c1c(O)cc(C)n(Nc2nc(C)cc(C)n2)c1=O	-8%	1.4%	-12%	-83%	?	19%	-14%	3%
Cc1ccc(S(=O)(=O)NCc2ccco2)c(C)c1C	3%	-2.5%	-1%	-8%	-3%	42%[activator]	-8%	3%
Cc1cc(C)c(N=Cc2c(O)n(-c3nccs3)c(=O)c3ccccc23)c(C)c1	?	-8.9%	-4%	-38%	?	0%	22%	-25%
CCc1ccc(NC(=O)c2sc3nc(C)cc(C)c3c2NC(=O)c2ccccc2OC)cc1	5%	0.4%	-6%[46.1 µM]	·	20%[46.1 µM]	1%	·	·
CNC(=O)c1ccc2c(c1)N=C(C)c1cc(C)ccc1S2	-9%	-4.3%	-17%[46.1 µM]	·	?	-9%	·	·
Cc1cc(C(=O)Nc2ccccc2C(=O)O)c(C)o1	·	·	1%	-13%	1%[46.1 µM]	-8%	12%	-7%
O=C(C1CCCCC1)N1CCCC(c2nc(-c3ccc(F)cc3)no2)C1 (stereo not drawn)	7%	3.9%	1%	-3%	6%	-29%	0%	-6%
CN(CC(=O)NCc1ccc(F)cc1)S(=O)(=O)c1cccc2nsnc12	1%	0.7%	-9%	-1%	17%	3%	13%	-16%
Cc1ccc(OCCCC(=O)Nc2ccc(N3CCOCC3)cc2)cc1	-1%	-0.4%	12%	-2%	-9%	-7%	-9%	-6%
COCCn1c(SCC(=O)NCC2CCCO2)nc2c(c1=O)SC(C)C2 (stereo not drawn)	-17%	0.1%	·	2%	·	0%	-5%	-3%
CCN(CC)S(=O)(=O)c1ccc(Cl)c(NC(=O)COc2ccc(OC)cc2)c1	·	·	?	10%	2%[46.1 µM]	?	-3%	-2%
CC1CCN(C(=O)COC(=O)c2cccc(NS(=O)(=O)c3ccccc3)c2)CC1	·	·	19%	·	-8%[46.1 µM]	24%	20%	·
O=C(N/N=C/c1ccccc1)c1ccc(-c2ccccc2)cc1	·	·	·	-2%	·	24%	-14%	1%
O=[N+]([O-])c1ccc(/C=N/NC(=S)Nc2ccc(Cl)cc2Cl)s1	·	·	·	-153%	·	-21%	2%	-7%
COc1ccc(S(=O)(=O)N2CCCC(C(=O)Nc3cccc(C(C)=O)c3)C2)cc1 (stereo not drawn)	1%	-5.4%	5%	-47%	?	?	16%	-6%
NC(=O)C1CCN(C(=O)c2cnn(-c3ccccc3)c2NC(=O)c2ccco2)CC1	-4%	4.5%	-2%	7%	24%[46.1 µM]	-24%	-1%	3%
Cc1nn(Cc2noc(C(=O)NCCc3ccccn3)n2)c(C)c1Br	·	·	4%[46.1 µM]	-4%	-2%[46.1 µM]	3%	-5%	18%
CC(/C=N/NC(=O)c1cccc(F)c1)=C\c1ccccc1	·	·	·	-3%	·	5%	-2%	-7%
CC1CCCCN1C(=O)CN1C(=O)NC2(CCCCC2C)C1=O (stereo not drawn)	·	·	0%	·	4%	6%	-4%	1%
